GCN5L2 inh = blocks human GCN5L2 histone acetyltransferase. Q92830. GCN5L2 HAT assay, ThioGlo1 CoA-SH fluorescence. Potency, µM (titrated, usually from 58.9 µM), inactives show at the top dose activity change, negative = inhibition, hits mostly inhibitors. hit rate 0.21% among 390,000. AID 504327
Target sequence (Q92830 whole entry, looked up): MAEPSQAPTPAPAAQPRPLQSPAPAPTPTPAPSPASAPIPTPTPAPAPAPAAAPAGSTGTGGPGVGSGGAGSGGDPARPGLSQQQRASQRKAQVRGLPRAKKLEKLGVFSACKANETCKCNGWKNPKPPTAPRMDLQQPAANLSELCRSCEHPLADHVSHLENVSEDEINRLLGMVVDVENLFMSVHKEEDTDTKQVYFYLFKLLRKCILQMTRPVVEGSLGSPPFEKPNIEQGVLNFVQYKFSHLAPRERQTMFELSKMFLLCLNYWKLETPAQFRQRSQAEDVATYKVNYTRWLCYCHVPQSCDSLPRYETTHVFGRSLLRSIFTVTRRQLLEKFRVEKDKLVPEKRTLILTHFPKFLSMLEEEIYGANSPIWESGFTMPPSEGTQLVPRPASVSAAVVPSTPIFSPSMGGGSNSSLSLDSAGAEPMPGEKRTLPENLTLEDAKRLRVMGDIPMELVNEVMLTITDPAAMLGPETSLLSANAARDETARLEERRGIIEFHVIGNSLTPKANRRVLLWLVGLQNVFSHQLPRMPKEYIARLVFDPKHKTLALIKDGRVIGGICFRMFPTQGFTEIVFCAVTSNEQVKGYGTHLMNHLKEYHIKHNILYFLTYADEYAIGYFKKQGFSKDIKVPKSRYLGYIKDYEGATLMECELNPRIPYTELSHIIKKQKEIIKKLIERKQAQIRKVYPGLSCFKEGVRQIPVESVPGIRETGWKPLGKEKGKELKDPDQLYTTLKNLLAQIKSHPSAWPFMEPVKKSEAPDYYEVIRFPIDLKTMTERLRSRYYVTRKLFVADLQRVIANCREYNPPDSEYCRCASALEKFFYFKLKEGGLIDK
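Enzyme at 20nM final was mixed with library compounds for 15 min at room temperature. Peptide H3(1-25) at 75uM, acetyl-CoA at 70uM and ThioGlo1 at 50uM were then added. Plates were read immediately and after 20 min (Ex340nm/Em540nm).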
N370S GC = N370S glucocerebrosidase modulation, Gaucher chaperone candidate | P04062 | N370S GC spleen homogenate, 4MU-glucoside fluorescence | Potency, µM (highest dose often 59.4 µM), without a hit: at the highest dose activity change, negative = inhibition, hits mostly inhibitors | hit rate 0.092% among 330,000 | AID 2101;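 also: 0% = full enzyme activity and -100% = no enzyme basal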
The depositor's hits bear a star; ? = inconclusive; / = no result given; & = joins results of further samples. Calls follow the shape of the dose curve; as a rule, active = well fitted curve in the direction sought with a large enough effect; inconclusive = small, poorly fitted or top-dose-only effect, or another doubt; inactive = no such curve, though single readings can be large; an effect the other way counts as inactive or inconclusive. Unless noted, % is scaled to controls: 0 for no effect and ±100 for the full control effect; potency is read from the fitted curve at half-maximal effect.

SMILES	GCN5L2 inh	N370S GC
COc1ccc(CNC(=O)C[C@H]2C[C@H](C(=O)N3CCOCC3)[C@@]3(CCC4CCCC4)c4[nH]c5cc(CCC(=O)N(C)C)ccc5c4CCN3C2=O)cc1OC	-6%	/
CCOC(=O)c1c(S(=O)(=O)NCC(=O)N2CCN(c3cc(C)ccc3C)CC2)c(C)n(C)c1C	-16%	/
CCN(C(=O)COC(=O)CCC1CCCC1)c1c(N)n(Cc2ccccc2)c(=O)[nH]c1=O	0%	3%
CN1CCN(S(=O)(=O)c2cccc(C(=O)Oc3cccc(C#N)c3)c2)CC1	3%	-2%
Cn1nc(C(=O)Nc2nc3ccc(S(C)(=O)=O)cc3s2)ccc1=O	-4%	-2%
O=C(C1CCCN1S(=O)(=O)c1ccc(Br)cc1)N1CCOCC1 (stereo not drawn)	10%	3%
Nc1ccccc1C(=O)NNc1ncc(C(F)(F)F)cc1Cl	13%	4%
CCCCN(C(=O)c1cc2c(s1)CCC2)c1c(N)n(CCC)c(=O)[nH]c1=O	-14%	1%
COc1ccccc1N1CCN(C(=O)c2nn(C)c3c2CS(=O)(=O)c2ccccc2-3)CC1	-7%&-1%	-3%
CC(C)NC(=O)Cn1c(SCC(=O)N2c3ccccc3CC2C)nc2ccccc21 (stereo not drawn)	1%	-17%
Cn1cc([N+](=O)[O-])c(C(=O)n2cccn2)n1	-6%	-3%
S=C1NCCOCCOCCOCCNC(=S)N2CCOCCOCCN1CCOCCOCC2	-14%	2%
COc1ccc2oc(=N)c(C(=O)Nc3ccc(F)cc3)cc2c1	0%	-10%
CCN1/C(=C2\C(=O)N(c3ccccc3)N=C2C)C=Cc2cc(C)ccc21	-12%	-10%
CC(=O)Nc1ccc(N2C(=O)CSC2c2ccccc2)cc1 (stereo not drawn)	1%	-2%
O=S1(=O)NC(=NCc2ccccc2)c2ccccc21	4%	1%
CCn1cc(C2=NCC(C)O2)c2ccccc21 (stereo not drawn)	0%	-16%
CC(=O)Nc1ccc(S(=O)(=O)N2CCN=C2SCc2cccnc2)cc1	-1%	6%
COC(CNC(=O)c1ccc2nc3ccccc3c(=O)n2c1)OC	-20%	?
COc1ccc([N+](=O)[O-])c(OC)c1C(=O)NC(=O)Nc1nc(C)nc(C)n1	-1%	-20%
COc1ccccc1-n1cnnc1SCC(=O)Nc1cc(C(C)(C)C)nn1-c1ccccc1	-9%	-2%
CCOC(=O)C(C)n1cnc2c(nnn2Cc2ccc(C)cc2)c1=O (stereo not drawn)	4%	2%
CCCCCCNc1c([N+](=O)[O-])c(=O)sc2ccccc12	-4%	10%
CC(=C/c1ccccc1)/C=N/n1c(C)n[nH]c1=S	-12%	-10%
Cc1ccc(NC(=O)C2CCCN(S(=O)(=O)c3cccc4nsnc34)C2)c(C)c1 (stereo not drawn)	-4%	/
CC(C)(CNC(=O)COc1ccccc1Cc1ccccc1)N1CCOCC1	-8%	1%
O=C(CNS(=O)(=O)c1ccccc1)N/N=C/c1ccc(O)cc1	-8%	2%
COc1ccc(S(=O)(=O)N(C)CC(=O)N2CCN(c3ccccc3)CC2)cc1	-3%	-2%
Cc1nnc(SCC(=O)NNC(=O)c2ccc(Br)cc2)n1C	0%	4%
Cc1ccc2c(c1)NC(=O)C(CC(=O)NCCN(CC(C)C)CC(C)C)O2 (stereo not drawn)	0%	?
COc1cccc(N2C(=O)C3CCCN3C2c2cccs2)c1 (stereo not drawn)	-6%	-13%
CC(C)NC(=O)c1ccc2c(c1)S(=O)(=O)c1ccccc1C2=O	1%	-2%
COCCOc1cc(-n2ccnc2SC)c(Cl)cc1Cl	-5%	1%
CCOC(=O)C(=O)c1c(C)cc2ccccn12	2%	5%
COc1ccc(/C=C/C(=O)OCC(=O)NCCC2=CCCCC2)cc1OC	-6%	-4%
C/C(=C\c1ccccc1)C(=O)N1CCN(c2cccc(C(F)(F)F)c2)CC1	-10%	5%
Cn1c(CC(=O)Nc2ccccc2F)nnc1SCC(=O)Nc1ccccc1Br	-7%	-2%
Cc1[nH]c2ccccc2c1/C=N/NC(=O)Cc1cccs1	-7%	?
CSc1ncccc1C(=O)OCC(=O)N1CCN(S(=O)(=O)c2ccc(C)cc2C)CC1	-14%	-6%
O=C(Nc1ccc([N+](=O)[O-])cc1)c1cccc(S(=O)(=O)Nc2cccnc2)c1	-5%	-8%
CC(C)NC(=O)Cn1cnc2c1c(=O)n(C)c(=O)n2C	0%	5%
COc1ccc(N2CCN(C(=O)CN3C(=O)NC4(CCCCC4C)C3=O)CC2)cc1 (stereo not drawn)	-7%	/
O=C(Nc1cccc(Oc2c(F)c(F)c(F)c(F)c2F)c1)N1C[C@@H]2C[C@@H](C1)c1cccc(=O)n1C2	-1%&-2%	2%&-1%
Fc1ccccc1-n1c(-c2ccc3ccccc3n2)n[nH]c1=S	-4%	10%
COc1ccc(CNC(=O)c2c(C)cc(=O)oc2C)cc1	-4%	-18%
NC(=S)N/N=C1\CCOc2ccc(Cl)cc21	-4%	-5%
O=C1c2ccccc2C(=O)N1c1cccc2cccnc12	-3%	29%
CC(=O)Nc1cc(S(=O)(=O)Nc2ccc(C)cc2)c(C)cc1C	-15%	11%
Cc1cc(/C=C2\NC(=S)NC2=O)c(C)n1-c1cccnc1	-17%	-3%
Cc1cc(C)c(NC(=O)C2CC(=O)N(C3CCCC3)C2)c(C)c1 (stereo not drawn)	1%	/
COc1ccc(N2C(=O)Cc3cc(OC)c(OC)cc3C2c2ccc(F)cc2)cc1 (stereo not drawn)	-6%	/
CC(C)CC(=O)Nc1cccc(-c2nc3ccccc3o2)c1	-10%	-6%
CC/C(=N/NS(=O)(=O)c1ccc(Cl)cc1)c1ccc(O)cc1	-2%	4%
CCCN(CC(=O)Nc1ccccc1OC)C(=O)c1nc2nc(C)ccn2n1	-1%	/
Cc1ccccc1-n1c(C)cc(/C=N/NC(=O)c2ccncc2)c1C	-12%	-22%
CN1CCc2c(sc3nc(NN)n(-c4ccc(Cl)cc4)c(=O)c23)C1	-2%	-8%
O=C(c1cccc([N+](=O)[O-])c1)N1CCCC(C(=O)N2CCc3ccccc3C2)C1 (stereo not drawn)	1%	1%
Cc1ccccc1C(=O)N1CCN(c2ccc(NC(=O)c3ccc4c(c3)OCO4)cc2)CC1	?	-2%
O=C(CSc1ncn(-c2ccccc2)n1)Nc1ccc2c(c1)OCCO2	-5%	?
COc1cccc(N(CC(=O)NCc2ccco2)C(=O)CCC(=O)Nc2nccs2)c1	2%	1%

(further entries)
SMILES	GCN5L2 inh	N370S GC
O=S(=O)(c1cc(F)ccc1F)N1CCN(c2ncnc3ccccc23)CC1	-8%	/
C=CCN1C(c2ccc(OCC)cc2)=CS/C1=C(\C#N)c1nnc2n1CCCCC2	0%	-12%
N#C/C(=C/c1ccc(O)c([N+](=O)[O-])c1)C(=O)Nc1ccccc1	-14%	1%
O=C(NCc1ccccc1Cl)C1CCC(=O)N(C2CC2)C1 (stereo not drawn)	-29%	-1%
CC(=O)SCC(C)C(=O)NCc1ccccc1 (stereo not drawn)	-3%	4%
O=C(Nc1cccc(F)c1)c1sc(Cl)nc1-c1ccccc1	-1%	0%
Cc1cc(S(=O)(=O)Nc2ccc3cn[nH]c3c2)c(C)cc1Cl	-12%	0%
Cc1ccc2c(CSc3nncn3C)cc(=O)oc2c1C	-3%	0%
COC(=O)CSc1nnc(CNC(=O)c2cccs2)n1-c1cc(OC)ccc1OC	-3%	20%
NC(=O)C1CCN(CCC(=O)Nc2ccc(F)c(F)c2)CC1	-1%	-1%
CCS(=O)(=O)CCSc1nc(C)cc(C)n1	-3%	0%
Cc1csc(=O)n1CC(=O)OCc1nnc(-c2ccccc2)o1	-4%	10%
O=C(NCc1ccccc1)c1nnc(Cc2cccc(F)c2)o1	1%	/
COc1ccc(-n2c(=O)cc(N3CCc4ccccc43)[nH]c2=O)cc1	-5%	3%
CN(CC(=O)N1CCN(Cc2ccccc2)CC1)S(=O)(=O)c1cccc2nsnc12	-10%	-10%
O=C(NNC(=O)c1ccccc1[N+](=O)[O-])c1ccco1	-8%	-18%
COC(=O)C1=C(NC(=O)c2ccc(C)c(C)c2)CCS1	-23%	5%
CCN(CC)S(=O)(=O)c1ccc(N2CC(C(=O)NCCc3ccc(Cl)cc3)CC2=O)cc1 (stereo not drawn)	0%	/
S=c1[nH]c(-c2ccccc2)cn1/N=C/c1cccnc1	-1%	-6%
Cc1ccc(CCN2CC(C(=O)NC3CCCC3)CC2=O)cc1 (stereo not drawn)	30%	2%
Cc1ccc(C(=O)O/N=C/c2c(Cl)n(C)c3ccccc23)cc1	-12%	0%
COc1ccccc1N1CCN(C(=O)c2c(C)cc(=O)oc2C)CC1	1%	-6%
O=C(c1cccc(Oc2ccc([N+](=O)[O-])cc2Cl)c1)N1CCCCC1	2%	?
CCc1cccc(NC(=O)c2ccc3c(=O)n4c(nc3c2)CCCCC4)c1	-3%	15%
Cc1ccc(-c2nsc(SCC(=O)NCc3ccc4c(c3)OCO4)n2)cc1	-9%	-10%
COC(=O)c1ccc(NC(=O)CC2C(=O)N(c3cccc(F)c3)C(=O)N2CC(C)C)cc1 (stereo not drawn)	-1%	/
O=C(NNC(=O)c1ccccc1F)c1cccc(-n2cccc2)c1	?	-2%
C[C@@]12C(=O)OC(=O)[C@@]1(C)C1CCC2O1	16%	8%
CCOC(=O)c1c(C)[nH]c(C(=O)CC(=O)OC)c1C	8%	18%
Cc1ccc(-c2nc(-c3ccncc3)no2)cc1	-6%	-6%
CC(C)(C)OC(=O)N[C@@H](C(=O)OC(C)(C)C)c1ccc2c(c1)OCO2	-8%	/
O=C(NCc1ccncc1)C12CC3CC(CC(C3)C1)C2	-10%	19%
COc1cccc2sc3cc(NCc4ccc5c(c4)OCO5)ccc3c(=O)c12	-6%	/
CCCCN1C(=O)N(C)C2NC(=O)NC21 (stereo not drawn)	-1%	-2%
CC(NC(=O)Cn1ncc2c3ccccc3n(Cc3ccc(F)cc3)c2c1=O)c1ccccc1 (stereo not drawn)	-7%	/
CCOC(=O)CSC1=C(C#N)C(=O)NC2(CCCCC2)S1	?	2%
CCOC(=O)c1sc(C(=O)OCC)c(OCCO)c1OCCO	-4%	5%
COc1ccc(C)c2sc(N3CCN(C(=O)c4ccco4)CC3)nc12	-1%	/
COC(=O)CSc1nnc2c3c4c(sc3nc(-n3nc(C)cc3C)n12)COC(C)(C)C4	-6%	2%
CC1CCN(C(=O)CS(=O)(=O)Cc2ccccc2)CC1	-3%	5%

Reformatted: entries from further up.
Molecule: CCOC(=O)CSC1=C(C#N)C(=O)NC2(CCCCC2)S1
  GCN5L2 inh: ?	N370S GC: 2%

Molecule: CCOC(=O)c1sc(C(=O)OCC)c(OCCO)c1OCCO
  GCN5L2 inh: -4%	N370S GC: 5%

Molecule: COc1ccc(C)c2sc(N3CCN(C(=O)c4ccco4)CC3)nc12
  GCN5L2 inh: -1%	N370S GC: /

Molecule: COC(=O)CSc1nnc2c3c4c(sc3nc(-n3nc(C)cc3C)n12)COC(C)(C)C4
  GCN5L2 inh: -6%	N370S GC: 2%

(further entries)
SMILES	GCN5L2 inh	N370S GC
Cn1nnc2c(NCc3ccco3)nccc21	-8%	4%
CCN1C(=O)C(Cc2nc3ccccc3c(=O)n2C)c2cc(C)ccc21 (stereo not drawn)	-2%	/
O=C(Nc1ccc(CN2CCOCC2)cc1)c1ccc(F)cc1	-3%	-6%
COc1ccc(OCCOC(=O)c2cccc(-n3cnnn3)c2)cc1	0%	1%
CC(=O)NC1C(OCc2ccccc2)OC(CO)C(OC(C)=O)C1OC(C)=O (stereo not drawn)	13%	0%
CCOc1ccccc1N1CCN(S(=O)(=O)c2cc(C)ccc2OC)CC1	-8%	-3%
NCCOc1ccccc1Cc1ccccc1	0%	0%
COc1cccc(-c2nc(CS(=O)(=O)CC(=O)NC3CC3)c(C)o2)c1	-23%	-3%
Cc1ccc(C2=NNC(c3ccc(Cl)cc3)=Nc3ccccc32)o1	1%	9%
COc1ccc(NC(=O)c2sc3nc4n(c(=O)c3c2C)CCC4)cc1Cl	-8%	/
COC(=O)C1=C[C@@H](C(=O)OC)C2C3=C(C(=O)C24CCCCC4)[C@H](C)n2c(=O)n(C)c(=O)n2[C@@H]3C1 (stereo partly drawn)	/	-2%
Cc1ccc(NC(=O)CN(C)S(=O)(=O)c2ccc(Br)s2)cc1F	2%	18%
O=C(Nc1cccc(Cl)c1)Nc1ccccc1NS(=O)(=O)c1cccs1	-4%	?
Fc1ccc(-c2nnc(CN3CCN(c4ccccn4)CC3)o2)cc1	3%	/
O=S(=O)(NC1CCCCCC1)c1cccc2cccnc12	-7%	-3%
Cc1ccc2c(c1)-c1c(cnn1CC(=O)O)CO2	26%	-1%
Cc1ccc(NS(=O)(=O)c2ccc(Cl)s2)nc1	-3%	-11%

Some of the compounds tested, and most or all hits are left out here.
